From PubChem
Mtb betalactam = beta-lactam sensitization of Mtb H37Rv | M. tuberculosis H37Rv growth with meropenem, percent inhibition; hits of this screen are not shown here | inhibition, % at 25 µM | actives 0.27% (n = 330,000) | AID 434955;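 active = about 74% or more and at least 40 points above the plate without the antibiotic, then above 30% in a dose series; inconclusive = first-round hits that could not be retested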;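 also: growth measured after seven days incubation then overnight dye step; 0% = bacteria only wells and 100% = bacteria with antibiotic; twin plates without the antibiotic show which effects depend on it; some results filed as inactive read as strong as hits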
Mtb H37Rv = M. tuberculosis H37Rv growth inhibitors, H37Rv strain (AID 1626); M. tuberculosis H37Rv growth inhibition; higher % means a stronger effect; actives 0.95% (n = 220,000); one-dose inhibition, % at 10 µM; IC50 in µM for titrated hits;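 active = confirmed in a dose series; inconclusive = inhibition above 80% but not taken into the dose series; inactive = below 80% or under 30% at every dose of the series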;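 also: bacteria incubated seven days before Alamar blue readout; 0% = bacteria only wells and 100% = bacteria with antibiotic wells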
Arbovirus inh = antivirals against arbovirus infection | AID 1251 | actives 0.37% (n = 200,000) | inhibition, % at 10 µM | arbovirus infection cell-based antiviral screen;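 active = inhibition from about 30%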;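 also: bluetongue infection of BSR cells; cell survival read as ATP light after 72 h; 0% = infected wells without compound and 100% = uninfected wells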
YopH PTP inh = blocks Yersinia enterocolitica YopH tyrosine phosphatase; fluorescence Ex485/Em525; inhibition, %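 (about 10 µM by stock and volumes)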; actives 0.16% (n = 140,000);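 active = inhibition of 50% or more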;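 also: controls were vehicle for no effect and minimum signal wells for full effect; inactives centre near -20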
RecA intein inh = inhibitors of M. tuberculosis RecA intein splicing | cell-free RecA intein splicing, fluorescence | inhibition, %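 (about 9 µM by stock and volumes)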 | P9WHJ3 | AID 2221 | actives 0.75% (n = 290,000); in the data active = inhibition above about 30%; inconclusive = no clear call, values can overlap the other calls;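 also: 0% = vehicle wells and 100% = reference inhibitor control wells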
Target sequence (P9WHJ3 whole entry, looked up): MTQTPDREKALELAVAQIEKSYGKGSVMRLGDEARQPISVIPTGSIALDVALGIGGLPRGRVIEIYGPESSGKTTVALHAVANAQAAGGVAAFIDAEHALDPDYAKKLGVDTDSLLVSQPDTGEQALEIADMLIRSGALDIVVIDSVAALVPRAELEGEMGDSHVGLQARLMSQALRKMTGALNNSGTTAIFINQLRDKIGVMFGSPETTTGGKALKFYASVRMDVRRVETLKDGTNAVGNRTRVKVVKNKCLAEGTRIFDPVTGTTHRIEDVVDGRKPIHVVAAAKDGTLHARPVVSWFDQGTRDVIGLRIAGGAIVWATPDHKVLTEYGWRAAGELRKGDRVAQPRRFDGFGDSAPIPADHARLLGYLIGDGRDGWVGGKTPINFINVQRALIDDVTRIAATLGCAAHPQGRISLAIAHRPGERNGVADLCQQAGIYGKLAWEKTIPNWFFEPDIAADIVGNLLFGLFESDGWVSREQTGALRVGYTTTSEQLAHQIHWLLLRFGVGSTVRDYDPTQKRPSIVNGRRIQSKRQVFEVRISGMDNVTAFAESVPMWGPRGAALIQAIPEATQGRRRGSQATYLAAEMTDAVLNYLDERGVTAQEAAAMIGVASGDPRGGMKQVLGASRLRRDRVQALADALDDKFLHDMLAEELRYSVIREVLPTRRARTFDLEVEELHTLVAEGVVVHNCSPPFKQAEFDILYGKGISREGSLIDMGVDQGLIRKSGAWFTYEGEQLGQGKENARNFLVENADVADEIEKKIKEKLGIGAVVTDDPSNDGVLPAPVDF
Arbovirus inh repeat = second read-out of Arbovirus inh, no call of its own (marks repeat the call); inhibition, %; measured here: 10K subset replicate screen; many hits read low in the repeat;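 first of two repeat runs on a subset; 0% = infected and 100% = uninfected wells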
The depositor's hits bear a star; ? = inconclusive; · = not tested or not shown.

SMILES	Mtb betalactam	Mtb H37Rv	Arbovirus inh	YopH PTP inh	RecA intein inh	others
CCN1C(=O)CSC1=NC12CC3CC(CC(C3)C1)C2	5	13%	-6	-15	-0.3
CC1Cc2ccccc2N1C(=O)COC(=O)CSc1ccc(F)cc1 (stereo not given)	26	·	·	·	0.6
CCCn1c(N2CCN(C(=O)Nc3ccccc3)CC2)nc2ccccc21	2	-6%	-17	·	2.9
CC1=CC=CC2=NC(=O)CC(C)(C(=O)N(CC(=O)NC(C)C)C3CCCC3)N12 (stereo not given)	?	-2%	-1	-34	2.0
COc1ccccc1CNC(=O)C1CCN(c2nc3ccccc3o2)CC1	-3	5%	1	-8	-7.0
CC1CN(C(=O)CCC(=O)N2CCCCC2)c2cc(Cl)ccc2O1 (stereo not given)	1	·	·	·	-0.3
Cc1cc(C)n(CCc2nc(-c3ccc(C)o3)cs2)n1	-2	2%	9	-22	2.5
CCCNC(=O)C1CC(=O)N(c2ccc(OCC(=O)Nc3cccc(C)c3C)cc2)C1 (stereo not given)	-2	-7%	1	-24	2.3	Arbovirus inh repeat=0
COc1cc(C(=O)Nc2ccc(Br)cc2C(=O)c2ccccc2)cc(OC)c1OC	-1	5%	-17	-63	0.6
CCC1=NNc2cccc3c(OC)ccc1c23	101	?	-5	-5	24
CCOc1cc(S(=O)(=O)n2cc(-c3ccc(F)cc3)c(N)n2)cc(OCC)c1OCC	-5	11%	-23	-3	7.2
O=C1[C@@H]2[C@H](C(=O)N1Cc1ccco1)[C@H]1C=C[C@@H]2C1	-8	-5%	-3	10	0.5
CCOC(=O)Cn1c(C)cc(=O)c2cccc(C)c21	·	16%	-3	-7	2.3	Arbovirus inh repeat=4
CCCOc1ccc(C(=O)Nc2ccc3c(c2)OCCO3)cc1	2	·	·	·	0.4
CCOc1ccc(Nc2nc(Cc3nnc(SCC(=O)c4ccc(C)c(C)c4)o3)cs2)cc1	3	3%	6	4	-0.3
Cc1ccc(-c2c(=O)n(O)c3ccccc3[n+]2[O-])cc1	8	·	·	·	-2.7
CCN1CCCC1CNC(=O)c1cc(COc2ccc(C)c(C)c2)on1 (stereo not given)	91	·	·	·	2.0
COc1c(OC(C)=O)ccc(/C=C/c2ccc3ccccc3n2)c1[N+](=O)[O-]	41	1%	-44	-40	·
CCOC(=O)c1sc(NC(=O)CSc2nnc(C(C)C)n2CC)nc1C	-9	·	-3	-5	-3.0
CCOc1ccccc1CN1CCC(N2CCC(C(=O)NC3CC3)CC2)CC1	-1	·	·	·	2.0
CCOC(=O)N1CCN(S(=O)(=O)c2ccc3c(c2)CCN3C(=O)CC)CC1	-10	-15%	15	-10	-0.9
Cc1ccc(Nc2nc(C(=O)N3CCC(C(=O)NC(C)C)CC3)cs2)cc1	-5	-2%	·	·	0.5
CCOC(=O)c1ccc(NC(=O)Nc2cc(C)cc(C)n2)cc1	-2	7%	-7	·	-0.8
CC(=O)c1ccccc1OCC(O)CN1CCN(c2ccccn2)CC1 (stereo not given)	-2	·	·	·	-8.0
Cc1cc(NC(=O)CN2C(=O)NC3(CCCCC3)C2=O)no1	2	8%	0	-21	-0.3
CCOC(=O)C1=C(C)N(CCCC(=O)O)C(=O)NC1c1cc2ccccc2c2ccccc12 (stereo not given)	-8	-2%	·	·	1.1
CCn1cc(C(=O)NCc2cccs2)c(=O)c2cc(S(=O)(=O)N3CCOCC3)ccc21	0	-2%	·	·	-1.0
O=C(Nc1ccc(Cl)cn1)c1ccc2c(c1)OCCO2	5	-1%	-22	·	7.4
O=C(COC(=O)c1cnccn1)Nc1ccc(Cl)cn1	11	·	·	·	1.1
CC1CCN(CCCn2c(=S)[nH]c3c(sc4ccc([N+](=O)[O-])cc43)c2=O)CC1	1	·	-1	·	3.2
Cn1c(=O)cc(N2CCN(C(=O)c3ccco3)CC2)[nH]c1=O	-5	-8%	1	·	-1.1
O=C(Nc1nnc(-c2cccs2)s1)c1cccc(F)c1	-17	-4%	-6	·	-1.4
O=C(Oc1ccc(-c2nnco2)cc1)c1ccc(F)c(S(=O)(=O)N2CCOCC2)c1	16	·	·	·	2.5
Cc1ccc2nc(-c3cccc(Br)c3)cc(C(=O)NCC3CCCO3)c2c1 (stereo not given)	29	·	·	·	-0.1
Cc1ccc(-c2nnc(NCc3ccccc3)c3ccccc23)cc1	8	-8%	-3	-8	-4.3
COc1nc(NCCO)nc(Nc2ccccc2F)n1	-8	2%	6	·	-1.8
CCN(CC)S(=O)(=O)c1ccc(Cl)c(C(=O)Nc2cccnc2)c1	5	·	·	·	0.7
COc1ccc(OC)c(C(=O)CCCC(=O)c2cc(OC)ccc2OC)c1	4	·	·	·	4.6
CCc1nn(CC(=O)N2CCN(CC)CC2)c(=O)c2cccn12	-2	·	·	·	-9.6
COc1cccc(N2CCN(CC(=O)NCc3cccs3)CC2)c1	-5	-3%	5	-39	-1.4
CCOC(=O)c1c(CC(C)C)csc1NC(=O)C(C)C	3	4%	-1	-8	9.1
Nc1ccc(-c2nc3ccc([N+](=O)[O-])cc3[nH]2)cc1	-3	5%	-16	-16	0.5
CC(C)Cc1ccc(C(C)C(=O)Nc2cccnc2)cc1 (stereo not given)	-8	·	·	·	9.3
Cc1ccc(S(=O)(=O)N2CCN(c3ccnc4cc(Cl)ccc34)CC2)cc1	80	?	15	·	9.7
CCOc1ccc2c(c1)nc(NCCCO)n2Cc1ccccc1	-1	-2%	·	·	-3.9
O=C(NCc1ccccc1)C1=C[C@@H](c2coc3ccccc3c2=O)C[C@@H](OCc2ccc(CO)cc2)O1	45	-1%	6	·	4.9
Cn1c2c(c3ccccc31)CCSC2=O	14	4%	0	-19	0.7
COC(=O)c1c(C)oc2cc(Br)c(OCC(=O)C(C)(C)C)cc12	10	-1%	1	-38	-0.1	Arbovirus inh repeat=-4
Cc1ccc(/C=N/N(C)C2=NS(=O)(=O)c3ccccc32)o1	0	7%	2	·	·
O=C(CN1C(=O)c2ccccc2C1=O)N1CCCCC1	2	-7%	1	-25	1.1
Cc1ccc(NC(=O)CSc2nnc(C)c(=O)n2N)c(C)c1	3	-7%	-6	-22	-1.2
CCOc1ccc(CCNC(=O)Cc2nn[nH]n2)cc1OCC	12	7%	8	-45	-0.6
Cc1c(/C=N/Nc2ccc(F)cc2)c(O)n(C)c(=O)c1C#N	85	50%	-33	·	-3.9
CC(C)(C)c1ccc2c(c1)OC(C(=O)N/N=C\c1ccncc1)CO2 (stereo not given)	72	9%	·	·	0.8
O=C1/C(=N\O)Cc2ccccc21	-8	1%	1	-32	·
N#Cc1c(-c2ccco2)nc(SCC(=O)Nc2cccc(Cl)c2)[nH]c1=O	5	-15%	9	-44	·
CC(=O)Nc1ccc(NC(=O)c2cc(=O)c3cc(C)c(C)cc3o2)cc1	5	·	·	·	-6.9
Cc1ccc(-n2nc3c(c2NC(=O)c2ccccc2)CS(=O)(=O)C3)cc1C	-16	·	·	·	4.4
CC1CCN(S(=O)(=O)N2CCC(C(=O)N3CCC(N(C)CC4CCCO4)CC3)CC2)CC1 (stereo not given)	-6	-6%	2	-37	·	Arbovirus inh repeat=0
O=c1oc(/C=C/c2ccc([N+](=O)[O-])s2)nc2ccccc12	99	·	·	·	-2.5

Part of the list above in order of number of heavy atoms, rising.
SMILES	Mtb betalactam	Mtb H37Rv	Arbovirus inh	YopH PTP inh	RecA intein inh	others
Nc1ccc(-c2nc3ccc([N+](=O)[O-])cc3[nH]2)cc1	-3	5%	-16	-16	0.5
CC(C)Cc1ccc(C(C)C(=O)Nc2cccnc2)cc1 (stereo not given)	-8	·	·	·	9.3
Cc1c(/C=N/Nc2ccc(F)cc2)c(O)n(C)c(=O)c1C#N	85	50%	-33	·	-3.9
CC(=O)Nc1ccc(NC(=O)c2cc(=O)c3cc(C)c(C)cc3o2)cc1	5	·	·	·	-6.9

Later entries:
SMILES	Mtb betalactam	Mtb H37Rv	Arbovirus inh	YopH PTP inh	RecA intein inh	others
NC(=O)CC(NC(=O)Cc1ccc(Br)cc1)c1ccc(NCCc2cccc(F)c2)c([N+](=O)[O-])c1 (stereo not given)	-11	-4%	·	·	2.7
COc1ccc(C(Sc2ccccc2)c2ccccc2)cc1OC (stereo not given)	6	·	·	·	13
CCOC(=O)C1=C(C)N(CCCC(=O)O)C(=O)NC1c1ccc(Br)cc1 (stereo not given)	1	-5%	·	·	-0.5
COc1ccc(-c2cc(C(=O)OCC(=O)c3ccc(C)c([N+](=O)[O-])c3)c3ccccc3n2)cc1	2	-10%	-18	-45	-4.0
N#Cc1c(-c2ccccc2)[nH]c(=O)[nH]c1=O	-4	-6%	9	·	0.2
Cc1cccc(C)c1NC(=O)C(C)N1CCCC1 (stereo not given)	-4	·	·	·	-0.1
N#Cc1cc(-c2ccccc2)nn1-c1ccccc1	11	2%	-4	-13	-3.4
O=S(=O)(/N=C(/c1ccc(Cl)cc1)N1CCOCC1)c1ccc(Cl)cc1	-1	-2%	5	-39	1.4
COc1ccc(CNc2ccc(C)c(C)c2)cc1	-3	5%	3	·	0.1
Cc1cc(OC(C)C(N)=O)nc(-c2ccccc2)n1 (stereo not given)	-6	1%	-2	·	-1.5
CCOC(=O)N=Nc1c2ccccc2c2nc3no[nH]c3nc12	·	?	-30	·	·
CCOC(=O)C1=C(N)OC(C)=C(C#N)C1c1ccco1 (stereo not given)	?	-2%	1	-32	-1.5
COc1ccccc1CN1CCN(Cc2cc(OC)c(OC)cc2OC)CC1	55	·	·	·	1.1
NC1=NC(=O)CC(C(=O)Nc2cccc3ccccc23)S1 (stereo not given)	5	-3%	24	·	-0.3
COc1cccc2c1-c1c(O)cccc1C2=O	1	·	·	·	-2.5
COc1ccc(F)cc1S(=O)(=O)N1CCN(c2ccccn2)CC1	0	·	·	·	0.1
Cc1cc(C)c2cc(C#N)c(SCC(=O)Nc3cc(C)on3)nc2c1	-5	·	·	·	0.3
CC(=O)Nc1ccc2nc(NC(=O)C(Cl)(Cl)Cl)sc2c1	-3	-5%	-3	·	1.6
COc1ccc(C2(C(=O)NCCc3ccccc3)CCCC2)cc1	54	·	·	·	3.1
O=C(O)Cn1ccnc1	-11	·	-1	-10	·
CCOC(=O)/C(=N\Nc1cccc(Cl)c1)Sc1nnc(-c2ccc(OC)cc2)n1C	6	2%	3	-32	1.0
Cc1ccc(Cl)c(NC(=O)COC(=O)C2CCC2)c1Cl	-1	·	·	·	0.7
CCOC(=O)C1(Cc2ccccc2C)CCCN(Cc2cc(OC)c(O)c(OC)c2)C1 (stereo not given)	6	-6%	-4	·	-2.3
COC(=O)COc1ccc(S(=O)(=O)Nc2cc(OC)ccc2OC)cc1	·	0%	1	-22	0.7
CCOC(=O)CN1C(=O)C(O)=C(C(C)=O)C1c1ccc(F)cc1 (stereo not given)	15	-1%	10	-4	-1.0
CCC(CC)C(=O)Nc1cccc(C(=O)NCCc2ccc(S(N)(=O)=O)cc2)c1	19	-6%	0	-10	1.2
CCn1c(SCC(N)=O)nnc1-c1ccc(OC)c(OC)c1	-11	-7%	3	-11	1.7
CCC(=Nc1ccc(OC)cc1OC)c1c(O)n(C2CCCCC2)c(=O)[nH]c1=O	2	9%	-25	-28	10
CCn1nc(NC(=O)C(C)C)c2cc3ccc(C)cc3nc21	-10	·	·	·	-115
COc1ccc(/C=C\c2nc(=O)c3ccccc3o2)cc1	·	7%	-23	·	1.8
C=CCc1cc(Cl)ccc1OCCn1ccnc1	22	·	·	·	4.2
O=C(NCCC1CCCCN1S(=O)(=O)c1ccc(F)cc1)C(=O)NC1CC1 (stereo not given)	-12	·	·	·	-2.3
O=C(CSc1nc2ccc(Nc3nc(N4CCOCC4)nc(N4CCOCC4)n3)cc2s1)Nc1ccccc1F	37	·	·	·	0.0
COc1cc(CNC23CC4CC(CC(C4)C2)C3)ccc1OCc1ccccc1	100	2.9µM*	2	·	0.6
COc1ccccc1NC(=O)Nc1nnc(Cc2ccc(F)cc2)s1	7	·	·	·	-1.9
CS(=O)(=O)C1=NN2C(=N)/C(=C\c3ccc(OCCOc4ccccc4)cc3)C(=O)N=C2S1	80	·	·	·	5.8
CCN(CC)CCN(C(=O)CCS(=O)(=O)c1ccccc1)c1nc2cc(C)cc(C)c2s1	96	·	·	·	4.2
CC1CCCN(CC(O)COCC2COc3ccccc3O2)C1 (stereo not given)	12	-2%	-4	2	-0.3
Cc1ccc(CN2CCN(/N=C/c3ccccc3)CC2)cc1	-6	-3%	·	·	-0.7
COCCCNC(=O)CCCN1C(=O)c2cccnc2Sc2ccccc21	4	·	·	·	-1.4
CCOC(=O)Cn1c(CN2CC(C)OC(C)C2)nc2c1c(=O)n(C)c(=O)n2C (stereo not given)	2	0%	0	-31	-0.1	Arbovirus inh repeat=2

These rows are one share of the data; count on the stated rates, not on these rows.
